Screening data deposited in PubChem BioAssay by several laboratories.
Calb FLC: C. albicans growth inhibition with fluconazole, primary screen, CaCi-2 strain, Alamar Blue fluorescence; C. albicans CaCi-2 (fluconazole-resistant clinical isolate) + fluconazole, 48 h; growth inhibition, % (no concentration beside the values); 300,000 compounds, 0.57% hits; AID 1979, 2009;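 active = most replicates above 75%; inconclusive = exactly half above 75%; inactive = most below 75%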;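 also: all wells also contain fluconazole at 8 µg/ml as a sub-toxic cotreatment; 0% = median of DMSO wells and 100% = median of geldanamycin control wells; wells of about 8 µL received 7.5 nL stock; the first replicate is given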
T cruzi repl: inhibitors of intracellular T. cruzi growth, primary screen, luminescence, NIH3T3 host cells | AID 1885, 2009 | 300,000 compounds, 1.4% hits | inhibition, % (test concentration not listed) | T. cruzi beta-gal in NIH3T3, 90 h;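 active = mean inhibition across valid replicates above about 55%, limit read from the data; inconclusive = mean below that limit but half or more replicates reach it; inactive = mean below it, under half of replicates reach it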;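 also: signal also drops with host cell toxicity which is not excluded here; 0% = plate median of DMSO wells and 100% = zero luminescence signal; higher percent means less beta-gal luminescence so fewer parasites; stock transfer was 50 nL into about 50 µL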
Bfl-1 A1 inh: caspase 3/7 activation in MEF A1-2A-BIM cells, primary screen, A1 inhibitor project, cell-based, luminescence, HTS. Caspase-Glo 3/7 luminescence, 3 h; percent of clofoctol response, vehicle zero. caspase activation, % (test concentration not listed). 330,000 compounds, 0.066% hits. AID 2462, 2010;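 active = over half of replicate activation scores above 10%, or exactly half above 10 with the replicate mean above 10; inconclusive = replicate mean below 10 yet half the replicates above 10; inactive = over half of replicates below 10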;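 also: wells of about 30 µL received 50 nL stock; many hits fall short of the cut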
ALR H2O2 inh: inhibitors of human ALR sulfhydryl oxidase, primary screen, biochemical, H2O2 detection, HRP-luminol luminescence, single point; AID 485317, 2010; 290,000 compounds, 3.8% hits; purified ALR, DTT oxidation; inhibition, % (concentration not given with the values); FAD-linked sulfhydryl oxidase ALR (Homo sapiens), P55789;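 active = mean and each replicate at 75% or more; inconclusive = only one of the two met; inactive = neither met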;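 also: stock transfer was 7.5 nL into about 7.5 µL; 0% = neutral wells and 100% = wells with inactivated enzyme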
Target sequence (P55789 whole entry, looked up): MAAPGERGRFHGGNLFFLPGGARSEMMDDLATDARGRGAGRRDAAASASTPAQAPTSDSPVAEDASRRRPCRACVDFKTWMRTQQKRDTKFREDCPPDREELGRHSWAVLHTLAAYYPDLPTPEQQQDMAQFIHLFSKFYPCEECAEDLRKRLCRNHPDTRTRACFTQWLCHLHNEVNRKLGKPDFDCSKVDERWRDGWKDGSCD
Beta apoptosis: inhibitors of cytokine-induced beta cell apoptosis, primary screen, luminescence | INS-1E cytokine-induced death, ATP luminescence, 48 h; percent of positive-control rescue, neutral wells zero | protection from apoptosis, % (no concentration beside the values) | 300,000 compounds, 0.8% hits;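 active = all replicates at 75% or more, or half of them and the mean; inconclusive = half reach 75% but not the mean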;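 also: 0% = cytokine-treated negative control wells and 100% = positive control rescue; higher means more ATP so stronger rescue from cytokine killing; wells of about 40 µL received 100 nL stock; the first replicate is given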
B2AR ag: beta2AR agonists driving receptor internalization, primary screen, cell-based, FAP fluorogen, flow cytometry; 340,000 compounds, 0.43% hits; response, % (no concentration beside the values); Am2.2-beta2AR cells; reference of the scale not given here;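 active = response above a set limit, near 3 SD of response in nonfluorescent compounds, cut at about 42% in these data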;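 also: stock transfer was 100 nL into about 11 µL; a reference agonist was the positive control; negative values mostly stem from fluorescent compounds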
Target sequence (P07550 whole entry, looked up): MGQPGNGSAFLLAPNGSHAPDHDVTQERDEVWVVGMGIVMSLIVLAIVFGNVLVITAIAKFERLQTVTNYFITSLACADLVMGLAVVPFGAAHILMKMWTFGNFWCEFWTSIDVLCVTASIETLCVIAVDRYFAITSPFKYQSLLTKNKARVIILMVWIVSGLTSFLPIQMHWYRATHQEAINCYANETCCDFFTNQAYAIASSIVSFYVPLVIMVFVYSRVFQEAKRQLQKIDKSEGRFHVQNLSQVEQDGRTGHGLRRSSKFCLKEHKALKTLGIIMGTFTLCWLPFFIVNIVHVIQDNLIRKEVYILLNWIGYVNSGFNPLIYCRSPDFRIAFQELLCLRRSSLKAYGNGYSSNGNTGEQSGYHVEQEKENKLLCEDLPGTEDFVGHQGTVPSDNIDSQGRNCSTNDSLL
Ecoli rRNA inh: reduced GFP signal of wild-type E. coli, primary screen, bacterial rRNA inhibitor project, GFP/RFP fluorescence, OD600, single point; E. coli WT GFP vs humanized-ribosome RFP mutants, 24 h; hits give low values; DMSO median 0, no signal -100; GFP signal change (wild-type ribosome), % (test concentration not listed); 350,000 compounds, 1.6% hits; AID 720706, 2013;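 active = significant combined selectivity score with lowered wild-type GFP, culture density cut under 30%, mutant RFP and density less affected; inactive = any of these conditions unmet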; also: one replicate is shown; some compounds called inactive have numbers as strong as hits
LANA-H2A inh: blockers of LANA interaction with H2A/H2B – biochemical, FP readout, HTS, primary screen. Protein LANA1 (Human herpesvirus 8 type P (isolate GK18)), Q9QR71. 320,000 compounds, 0.6% hits. cell-free LANA-H2A/H2B peptide, fluorescence polarization. inhibition, % (test concentration not listed); in the data active = inhibition mostly above about 10%, no sharp cut-off; inactive = mostly below about 6.7%;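 also: stock transfer was 7.5 nL into about 10 µL; 0% = median of vehicle wells and 100% = median of positive control wells; one replicate is shown; the record names a cut of 25% in any replicate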
Ecoli rRNA inh OD600: further read-out of Ecoli rRNA inh, marked with its call; OD600 change, %; measured here: OD600 growth;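 optical density of the mix in the first replicate; 0 = DMSO median and -100 = no signal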
Ecoli rRNA inh RFP: second read-out of Ecoli rRNA inh, no call of its own (marks repeat the call); RFP signal change, %; measured here: RFP humanized mutant strains;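 first replicate; 0 = DMSO median and -100 = no signal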
Numbers without * were called inactive; ? = inconclusive; · = not tested or not shown. An excerpt; the hit share may differ from the screen's.

#1 CCn1c(SCC(=O)Nc2cccc(F)c2)nnc1-c1cc2cc(Br)ccc2o1
#2 COc1ccc(C(=O)/C=C2/C(=O)Nc3ccccc32)cc1OC
#3 Cc1nn(Cc2ccc(C(=O)NC(C)(C)C)o2)c(C)c1Br
#4 CCC(C(=O)N1CC2(C)CC1CC(C)(C)C2)N1C(=O)c2ccccc2C1=O (stereo unspecified)
#5 Cc1c(Cc2ccc3c(c2)OCO3)sc(NC(=O)c2cccc3ccccc23)c1C(N)=O
#6 CCc1ccc(NC(=O)C(C)OC(=O)C2CCC(=O)N2)cc1 (stereo unspecified)

Screen / compound no.	1	2	3	4	5	6
B2AR ag	2	-20	-12	11	4	-4
LANA-H2A inh	-4.2	-2.1	-1.4	-7.2	-0.3	-4.3
ALR H2O2 inh	·	·	3	-13	3	-6
Bfl-1 A1 inh	1.2	0.3	-0.3	0.3	-0.6	0.8
T cruzi repl	-9	13	-29	0	0	-15
Beta apoptosis	-5	-15	8	-3	-1	-6
Ecoli rRNA inh	·	12	·	-2	1	11
Ecoli rRNA inh RFP	·	3.4	·	8.0	4.5	-0.2
Ecoli rRNA inh OD600	·	6	·	-16	-4	6
Calb FLC	10	15	-5	-3	3	7

Continued; it opens with the two that closed the last part.
#5 Cc1c(Cc2ccc3c(c2)OCO3)sc(NC(=O)c2cccc3ccccc23)c1C(N)=O
#6 CCc1ccc(NC(=O)C(C)OC(=O)C2CCC(=O)N2)cc1 (stereo unspecified)
#7 COc1ccc(NC(=O)CN(C)C(=O)c2cccnc2Sc2ccc(C)c(C)c2)cc1
#8 CCCc1cc(-c2n[nH]c(=S)n2CC(C)C)cs1
#9 C[C@H](NC(=O)c1nc[nH]c1C(=O)N[C@H](C)c1ccccc1)C(=O)OC(C)(C)C
#10 CCN(CCS(=O)(=O)c1ccc(Cl)cc1)C(=O)Nc1ccccc1
#11 COc1cccc(NC(=O)CSc2nc3ccccc3c(=O)n2Cc2cccs2)c1
#12 NC(=O)c1ccsc1NC(=O)COC(=O)c1ccccc1NCc1ccco1

Screen / compound no.	5	6	7	8	9	10	11	12
B2AR ag	4	-4	2	1	0	-4	-4	5
LANA-H2A inh	-0.3	-4.3	·	1.5	0.0	-2.2	-1.0	-5.1
ALR H2O2 inh	3	-6	·	46	15	-3	-5	2
Bfl-1 A1 inh	-0.6	0.8	0.7	1.9	0.4	1.9	0.0	-0.8
T cruzi repl	0	-15	4	-4	-21	-1	7	9
Beta apoptosis	-1	-6	2	·	-4	-2	16	-4
Ecoli rRNA inh	1	11	-10	-52	8	-3	·	·
Ecoli rRNA inh RFP	4.5	-0.2	3.7	-34	9.7	-1.4	·	·
Ecoli rRNA inh OD600	-4	6	-13	-79	1	3	·	·
Calb FLC	3	7	-7	6	8	1	?	5

#13 COc1ccc(N(CC(=O)NCc2ccc(Cl)cc2)S(=O)(=O)c2c(C)noc2C)cc1
#14 C=CC[n+]1c(-c2ccc(C)cc2)csc1Nc1c(C)n(C)n(-c2ccccc2)c1=O
#15 COc1cc(S(=O)(=O)NCc2ccccc2Cl)ccc1-n1cnnn1
#16 CC1CCCN(C(=O)c2cccc(S(=O)(=O)N3CCCC3)c2)C1 (stereo unspecified)
#17 Cc1ccc2c(cnn2C(=O)CCC(=O)N2CCCCC2)c1
#18 CC(NS(=O)(=O)c1ccc(Br)cc1)C(=O)NCc1ccco1 (stereo unspecified)

Screen / compound no.	13	14	15	16	17	18
B2AR ag	-1	7	-4	7	1	3
LANA-H2A inh	3.8	-5.8	11	2.7	-2.1	7.1
ALR H2O2 inh	-4	99*	-1	·	-11	-2
Bfl-1 A1 inh	0.1	0.3	0.7	0.5	·	-0.3
T cruzi repl	11	65*	9	·	-3	-2
Beta apoptosis	2	·	1	0	-3	-2
Ecoli rRNA inh	0	-23	-2	4	-8	5
Ecoli rRNA inh RFP	-2.0	-1.8	1.3	-1.3	-0.6	-0.8
Ecoli rRNA inh OD600	15	-34	-16	7	-10	-3
Calb FLC	-2	-27	-10	·	0	-10

#19 O=C(O)CN1C(=O)c2ccc(Oc3ccc([N+](=O)[O-])cc3)cc2C1=O
#20 NC(=O)c1ccc(NC(=O)COC(=O)c2cc3ccccc3cc2O)cc1
#21 COC(=O)CCP(=O)(O)Cc1ccccc1CP(=O)(O)CCC(=O)OC
#22 COc1cc(CCC(=O)OCC(=O)Nc2ccc(F)c(F)c2F)cc(OC)c1OC
#23 CCO/C([O-])=N/c1sn[n+](C)c1C
#24 O=C(Nc1ccc(S(=O)(=O)N2CCCC2)cc1)C1COc2ccccc2O1 (stereo unspecified)

Screen / compound no.	19	20	21	22	23	24
B2AR ag	1	3	-4	0	-7	-4
LANA-H2A inh	-0.7	0.7	1.1	-6.5	2.0	7.4
ALR H2O2 inh	·	-15	-6	-2	-2	·
Bfl-1 A1 inh	0.5	-1.0	-0.6	0.6	-0.1	0.1
T cruzi repl	-12	·	-7	-17	-1	-6
Beta apoptosis	-2	-3	-2	·	-4	-6
Ecoli rRNA inh	18	3	·	5	5	4
Ecoli rRNA inh RFP	1.2	1.4	·	-3.8	-1.7	2.7
Ecoli rRNA inh OD600	10	15	·	0	9	-7
Calb FLC	-2	·	2	0	-13	1

#25 CC(OC(=O)c1ccc2ncsc2c1)C(=O)N1CCCC1 (stereo unspecified)
#26 COc1ccc(/C=N/n2cnc3scc(-c4cccs4)c3c2=O)cc1OC
#27 CC(Sc1ccc(Cl)cc1)C(=O)NNC(=O)c1ccncc1 (stereo unspecified)
#28 CC(C)[C@H](NC(=O)[C@H]1N2C(=O)c3ccccc3C2SC1(C)C)C(=O)NCc1ccco1 (stereo partly specified)
#29 Cc1ccc(S(=O)(=O)N[C@@H](CC(C)C)C(=O)N2CCC(C(=O)N[C@@H](Cc3ccccc3)C(=O)O)CC2)cc1
#30 Cc1cccc(C(=O)NC2CCN(C(=O)Nc3ccccc3C)CC2)c1

Screen / compound no.	25	26	27	28	29	30
B2AR ag	·	6	5	9	-7	-8
LANA-H2A inh	4.5	-3.1	2.0	3.0	-1.8	1.3
ALR H2O2 inh	-61	·	·	-3	4	·
Bfl-1 A1 inh	-0.2	-0.2	-0.2	-1.6	?	0.7
T cruzi repl	-3	0	·	-5	2	15
Beta apoptosis	-14	1	-1	-3	-1	5
Ecoli rRNA inh	11	·	3	3	·	5
Ecoli rRNA inh RFP	4.3	·	4.0	1.2	·	2.6
Ecoli rRNA inh OD600	25	·	-1	2	·	16
Calb FLC	-23	-2	·	-6	-5	-2

#31 O=C(NCc1cccnc1)c1ccc([N+](=O)[O-])o1
#32 CCC(=O)N1CCN(c2ccccc2NC(=O)COc2cccc(C)c2C)CC1
#33 CCOC(=O)N1CCN(C(=O)c2cn(C)c3ccc(S(=O)(=O)N(CC)CC)cc3c2=O)CC1
#34 Cc1ccc(-c2cccc(CN3CCN(C(C)C)C(CCO)C3)c2)o1 (stereo unspecified)
#35 Cn1cnnc1SCC(=O)c1ccc2c(c1)OCCO2
#36 COc1cccc(-c2nn(-c3ccccc3)cc2C(=O)Nc2nccs2)c1

Screen / compound no.	31	32	33	34	35	36
B2AR ag	4	2	-1	1	-5	13
LANA-H2A inh	7.8	1.5	0.9	-6.3	14	4.2
ALR H2O2 inh	-28	-15	-8	6	66	-2
Bfl-1 A1 inh	1.4	0.5	-0.5	-0.1	1.2	0.8
T cruzi repl	74*	30	-7	30	-3	1
Beta apoptosis	-17	2	-4	-7	-2	9
Ecoli rRNA inh	4	-40	6	8	·	·
Ecoli rRNA inh RFP	-2.8	-7.8	-0.2	-0.5	·	·
Ecoli rRNA inh OD600	6	-55	11	14	·	·
Calb FLC	32	-4	-3	-12	-7	13

#37 COc1ccc(S(=O)(=O)N(CC(=O)NCc2ccncc2)Cc2ccccc2)cc1
#38 O=C1C2C(c3ccccc3)CC=CC2[C@H](c2cccc([N+](=O)[O-])c2)N1Cc1ccccc1 (stereo partly specified)
#39 CC1CN(S(=O)(=O)c2cccc(C(=O)NCCCn3ccnc3)c2)CC(C)O1 (stereo unspecified)
#40 CC1CCCCC12NC(=O)N(CC(=O)N1CCN(S(=O)(=O)/C=C/c3ccccc3)CC1)C2=O (stereo unspecified)
#41 OCCCNc1nc(-c2ccc(Br)cc2)nnc1-c1ccc(Cl)cc1
#42 Cc1cc(C)cc(NC(=O)Oc2ccccc2N2CCCCC2)c1

Screen / compound no.	37	38	39	40	41	42
B2AR ag	4	-2	1	-6	5	-1
LANA-H2A inh	3.1	-5.6	0.6	-1.1	-0.3	-1.7
ALR H2O2 inh	-29	·	-9	-1	·	1
Bfl-1 A1 inh	0.7	0.2	0.5	2.0	-0.6	1.1
T cruzi repl	6	56*	-8	·	15	9
Beta apoptosis	-1	6	-3	5	5	-4
Ecoli rRNA inh	-1	0	·	5	·	20
Ecoli rRNA inh RFP	-2.2	-2.1	·	2.1	·	1.3
Ecoli rRNA inh OD600	-3	1	·	2	·	15
Calb FLC	-1	1	-8	·	-1	2

#43 C[C@H](NC(=O)C1CCN(S(=O)(=O)c2ccccc2)CC1)C(=O)NCc1ccccc1
#44 Cn1nc(/C=C/c2ccccc2)ccc1=O
#45 Cc1cc(Cl)ccc1OC(C)C(=O)NNC(=O)C1CCCCC1C(=O)O (stereo unspecified)
#46 CC(Oc1ccc2c3c(c(=O)oc2c1)CCC3)C(=O)NCc1cccnc1 (stereo unspecified)
#47 NC(=O)c1cc2ccncc2c2ccccc12

Screen / compound no.	43	44	45	46	47
B2AR ag	-2	-4	-7	-8	-4
LANA-H2A inh	0.4	3.4	-1.7	-3.6	0.5
ALR H2O2 inh	-1	-14	-11	3	-5
Bfl-1 A1 inh	0.2	-7.1	-1.5	1.4	-0.2
T cruzi repl	-9	-4	0	-3	-11
Beta apoptosis	4	·	-2	3	-43
Ecoli rRNA inh	4	-1	10	-2	8
Ecoli rRNA inh RFP	-2.1	-0.3	1.6	-1.2	1.7
Ecoli rRNA inh OD600	9	0	9	4	5
Calb FLC	1	-7	-9	5	12
